CSC inhib: cancer stem cell inhibition; cancer stem cell-like cells viability, luminescence; inhibition, % at 7.5 µM; hit rate 1.1% among 300,000;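 active = mean at 75% or more and at least half the replicates too; inconclusive = mean and replicates disagree; tested in HMLE shEcad cells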;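 also: 0% = median of negative and 100% = median of positive control wells; the first replicate is given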
MT1-MMP act inh: inhibitors of human MT1-MMP activation; P50281; AID 651647; hit rate 0.061% among 360,000; GFP/RFP ratio change, % at 20 µM; HT1080 RFP-PRO-GFP cells, GFP/RFP ratio fluorescence, overnight; percent of plate control window, DMSO zero;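 active = GFP/RFP ratio change of at least 30% with cell ATP level not reduced by more than half and red fluorescence within 50% of control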; also: strong numbers were not always called active
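Assay system: HT1080 cells carrying an RFP-PRO-GFP reporter | Dosing: Single dose of 20 µM compound, 1% DMSO final | Incubation: Cells overnight before dosing, compound overnight, 37 °C, 5% CO2 | Evaluation: GFP/RFP fluorescence ratio | Control set: DMSO and RFP-L50D-GFP cell wells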
eIF4H FP inh: inhibitors of RNA binding by human eIF4H. Q15056. eIF4H fluorescence polarization binding assay. inhibition, % at 35 µM. hit rate 0.94% among 290,000;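 active = 50% or more with normal probe brightness, or confirmed in later tests; inconclusive = above 50% with abnormal brightness, or retests that disagree; inactive = below 50% or failed in later tests; about a fifth of its hits are not listed in these tables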;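 also: calls also rest on retests at 20 µM and on dose response follow-up; 0% = protein and probe with vehicle and 100% = probe without protein; strong numbers were not always called active; many hits fall short of the cut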
PABP FP inh: blocks human PABP binding to poly(A) RNA; P11940; fluorescence polarization; inhibition, % at 35 µM; hit rate 1% among 290,000; AID 2014;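 active = 50% or more with normal probe brightness, or confirmed in later tests; inconclusive = above 50% with abnormal brightness, or retests that disagree; inactive = below 50% or failed in later tests; about a fifth of its hits are not listed in these tables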;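 also: calls also rest on retests at 20 µM and on dose response follow-up; controls were probe without protein and protein plus probe with vehicle; some compounds called inactive have numbers as strong as hits; many hits fall short of the cut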
Target sequence (P11940 whole entry, looked up): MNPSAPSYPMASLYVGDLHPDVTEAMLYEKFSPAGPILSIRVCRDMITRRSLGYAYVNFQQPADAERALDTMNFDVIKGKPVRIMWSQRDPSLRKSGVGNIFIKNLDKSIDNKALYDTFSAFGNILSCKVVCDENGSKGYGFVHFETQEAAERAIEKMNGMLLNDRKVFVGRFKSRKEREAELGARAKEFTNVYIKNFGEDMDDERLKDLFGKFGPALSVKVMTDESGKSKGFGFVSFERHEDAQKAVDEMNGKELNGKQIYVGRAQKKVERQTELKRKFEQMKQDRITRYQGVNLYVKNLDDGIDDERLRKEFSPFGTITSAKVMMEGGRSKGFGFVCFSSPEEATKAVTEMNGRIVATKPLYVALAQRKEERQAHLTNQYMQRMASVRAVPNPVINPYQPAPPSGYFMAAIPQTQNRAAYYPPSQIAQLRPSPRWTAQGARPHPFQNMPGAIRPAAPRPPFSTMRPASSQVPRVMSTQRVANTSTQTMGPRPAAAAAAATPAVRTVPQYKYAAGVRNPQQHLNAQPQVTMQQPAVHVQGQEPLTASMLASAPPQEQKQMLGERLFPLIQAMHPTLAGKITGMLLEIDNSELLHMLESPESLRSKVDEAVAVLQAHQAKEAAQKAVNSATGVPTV
Env fusion inh: blocks HIV Env-driven cell-cell fusion | AID 651610 | inhibition, % at 12.3 µM | hit rate 1.1% among 360,000 | HeLa-JRFL Env/CEM21 cell fusion, luciferase;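 active = mean replicate inhibition score of at least 50 and every replicate individually at or above 50; inconclusive = only one of the two criteria met; inactive = mean below 50 and not all replicates reaching 50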;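 also: 0% = plate neutral controls and 100% = maraviroc near 300 nM; one replicate is shown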
Rce1 inhib: yeast Ras-converting enzyme inhibition; Q03530; yeast membranes, quenched prenylated peptide cleavage fluorescence; calls only; hit rate 0.27% among 290,000;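 active = fall in fluorescence gain of 50% or more versus controls, with final raw signal at or below 3038400; inconclusive = same 50% fall but final raw signal above 3038400; inactive = fall in fluorescence gain under 50%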;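 also: plate controls were neutral control wells for no effect and wells lacking membranes for full effect; tested at 10 µM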
Yeast UUG start: modulators of start codon recognition fidelity in yeast | hit rate 0.13% among 350,000 | activity score, % at 18.7 µM | S. cerevisiae UUG-firefly luciferase reporter, luminescence/redox ratio | AID 602363;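 active = replicate mean at a twofold rise or more, about +100% in these data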;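 also: firefly luciferase made from a UUG start codon reports start codon fidelity; reporter light over untreated wells divided by growth signal over untreated wells; some hits fall short of that in this replicate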
eIF4H FP inh retest: further read-out of eIF4H FP inh, marked with its call; inhibition, %; compound at 20 µM; confirmation average;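 mean of two retest wells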
PABP FP inh retest: second read-out of PABP FP inh, no call of its own (marks repeat the call); inhibition, %; compound at 20 µM; confirmation repeats;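 mean of two retest wells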
MT1-MMP act inh RFP: recorded beside MT1-MMP act inh, whose call it bears; RFP signal change, %; measured here: RFP expression control read;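 0 = vehicle wells; hits needed this value within 50% of zero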
Starred values were filed as active, the others as inactive; i = inactive; ? = inconclusive; . = not tested or not shown; & = joins results of further samples. This is a subset; count on the stated rates, not on these rows.

SMILES	CSC inhib	MT1-MMP act inh	MT1-MMP act inh RFP	eIF4H FP inh	PABP FP inh	Env fusion inh	Rce1 inhib	Yeast UUG start	others
C#CCNC(=O)/C=C/c1ccc(OC)cc1	0.9	5.0	0.6	-5.5	-8.5	-9.0	i	-7.7
O=C(NCCCN1CCCC1=O)c1cccc(NS(=O)(=O)c2ccc(Br)cc2)c1	-2.9	-0.9	-4.5	.	.	5.6	i	-4.2
CC(=O)c1ccc(N2CCN(CC(O)COCc3ccco3)CC2)cc1 (configuration not stated)	-4.4	-0.2	1.8	10.8	9.7	1.7	i	.
Cn1c(=O)c2c(ncn2CCN(CCO)Cc2ccccc2)n(C)c1=O	-14.7	-5.7	1.6	-1.7	-5.7	-25.0	i	-7.6
CCOc1ccccc1OCCC(=O)OCC(=O)Nc1c(C)nn(-c2ccccc2)c1C	-7.5	3.1	2.1	.	.	i	i	2.8
COc1cc(NC(=O)CSc2nnnn2Cc2ccccc2)cc(OC)c1	.	1.2	0.3	-4.6	-7.7	0.8	i	.
CC(OC(=O)Cc1c[nH]c2ccccc12)C(=O)Nc1ccccc1[N+](=O)[O-] (configuration not stated)	-5.7	-0.7	-1.1	.	.	4.8	i	.
O=C(Cn1cnc2c(nnn2Cc2ccc(F)cc2)c1=O)NCc1ccc(F)cc1	10.7	5.3	1.8	3.0	-15.8	-13.0	.	.
Cc1cnc(NC(=O)COc2ccc3c(c2)CCC3)s1	3.9	-1.4	2.7	-6.9	-1.2	-318.9	i	-52.2
C/C(N)=C(/C#N)C(=O)CSc1nnc(-c2ccc3c(c2)OCO3)o1	3.9	-3.6	-1.9	8.9	22.5	.	i	-19.5
Cc1cc2ccccn2c1C(=O)c1ccc(N/N=C/c2ccc(C(=O)O)cc2)c([N+](=O)[O-])c1	.	3.2	6.3	95.6	29.7	6.5	.	.	eIF4H FP inh retest=19.0;PABP FP inh retest=13.9
O=S1(=O)CC(NCc2ccccc2)C(Nc2ccc(Cl)cc2)C1 (configuration not stated)	-14.1	1.5	0.0	-6.4	7.5	.	i	-2.1
Cc1ccc(S(=O)(=O)N2CCOCC2)cc1NC(=O)COC(=O)CNC(=O)c1ccc(C(C)(C)C)cc1	-7.4	8.1	5.3	-4.2	-4.0	7.5	.	.
COc1cc(NC(=O)c2ccc(-c3ccnn3C)c3ccoc23)cc(OC)c1OC	.	6.0	-0.4	.	.	3.9	.	-13.7
O=[N+]([O-])c1ccc(NCCc2ccccc2)c(Br)c1	15.2	1.4	-1.0	1.4	-3.5	28.4	i	-13.4
O=C1c2ccccc2C(=O)N1CCCCSc1nnnn1-c1ccccc1	-4.5	6.9	0.9	-3.9	7.9	.	i	-4.9
COC(=O)c1[nH]c2ccccc2c1NC(=O)CN1CCN(c2cccc(Cl)c2)CC1	0.9	5.5	-16.7	-3.8	-7.7	.	i	-4.3
Cc1ccccc1OCC(=O)N(Cc1ccc(N(C)C)cc1)C1CCS(=O)(=O)C1 (configuration not stated)	-19.7	0.9	-1.6	-9.0	0.6	-11.8	i	-5.9
Clc1ccc(-c2nnc(COc3ncnc4ccccc34)o2)cc1	-8.0	0.4	1.8	1.3	47.4	-2.9	i	-12.2
O=C(CN1CCN(Cc2ccccc2)CC1)N/N=C/c1ccco1	-3.1	1.5	1.1	-0.2	-3.7	-5.1	i	.
Cc1c(Cl)cnc(NC(=O)CSc2nnnn2C)c1Cl	-16.9	1.6	7.5	.	.	.	.	-19.8
COC(=O)c1cc(S(=O)(=O)N2c3ccccc3CC2C)cn1C (configuration not stated)	-14.7	0.1	-3.5	.	.	6.5	i	-8.8
O=C(c1ccc2c(c1)OCO2)N(c1ccc(F)cc1)C1C=CS(=O)(=O)C1 (configuration not stated)	9.9	-6.8	8.1	-13.8	-15.5	.	i	.
CCOC(=O)c1cc(-c2ccccc2)nn1CC1CC(c2ccc(OC)cc2)=NO1 (configuration not stated)	44.4	5.8	-2.2	.	.	34.2	.	-9.1
COc1ccc(OCCN2CCC(C(=O)NC(c3ccc(F)cc3)c3ncccc3C)CC2)cc1 (configuration not stated)	.	2.1	2.1	.	.	-3.8	.	1.8
CCCCC(CC)CNC(=O)C1C2C=CC(C2)C1C(=O)O (configuration not stated)	-7.1	1.2	0.2	10.2	-2.6	-22.4	i	4.2
Cc1cc(C)c2c(CN3CCCCCCC3)cc(=O)oc2c1	.	-3.0	4.9	.	.	-0.1	.	8.0
CCCCS(=O)(=O)C(=C1Nc2ccccc2N1)S(=O)(=O)CCCC	-11.8	-4.8	-5.0	-17.6	6.1	.	i	.
O=C1CCC(=O)N1c1ccc(S(=O)(=O)Nc2ccc(Br)cc2)cc1	.	-1.8	-1.5	1.6	-1.3	-10.5	i	-12.3
O=c1c2ccccc2c(-c2ccccc2)nn1-c1ccccn1	-2.0	-4.1	-1.9	-4.4	-12.9	35.3	i	-3.3
CCOc1ccc(-n2c(SCC(N)=O)nc3c(c2=O)SCC3)cc1	2.2	-1.5	2.7	-7.6	8.5	-2.3	i	-1.0
O=C(Nc1nnc(-c2ccccc2)s1)c1ccc(Cl)c(S(=O)(=O)N2CCOCC2)c1	.	.	.	-4.4	-0.9	.	i	.
COc1cc(C2CC(=O)Oc3ccc(C(C)(C)C)cc32)cc(OC)c1OC (configuration not stated)	.	6.5	4.9	.	.	20.2	.	-8.2
CN1CCN(c2nc(-c3cccnc3)nc3scc(-c4ccccc4)c23)CC1	23.6	0.0	1.5	-3.9	-11.0	-8.6	i	-9.4
OCCC1CN(Cc2nc(-c3ccccc3)cs2)CCN1Cc1ccc(F)cc1 (configuration not stated)	19.0	-3.3	-18.3	8.4	0.6	26.4	i	1.0
c1ccc2c(CSCCc3ccncc3)cccc2c1	36.1	-13.0	-10.4	4.4	-1.3	.	i	.
O=C(NCCOc1ccc(F)cc1)C1CCC(=O)N(CCCN2CCOCC2)C1 (configuration not stated)	-1.1	0.5	3.4	-8.2	-0.4	2.9	i	-6.6
CCOc1cc(NC(=S)NCCCN2CCOCC2)c(OCC)cc1NC(=O)C1CC1	-3.7	.	.	3.5	3.4	-4.0	i	.
O=C(NC(=S)Nc1ccccc1)c1cc([N+](=O)[O-])ccc1N1CCOCC1	-1.4	-4.2	-1.0	-8.4	-5.2	-2.6	i	.
CC1=Nn2c(nnc2C2CCCCC2)SC1	6.9	4.8	3.8	-17.8	-7.4	-71.9	i	-20.8
O=C(COc1ccc(Cl)cc1)NCc1n[nH]c(=O)c2ccccc12	-12.7	0.9	-3.4	.	.	-14.1	i	-13.3
COc1ccc(CNC(=O)C(NC(C)=O)C(=O)Nc2ccc(C(C)C)cc2)cc1 (configuration not stated)	4.7	7.7	0.3	-4.4	-7.5	-5.1	i	.
CCOc1ccc(C(C)NC(=O)c2cccnc2OCC)cc1OCC (configuration not stated)	2.9	0.4	6.6	7.2	2.1	2.8	i	.
Cc1cccc(NC(=S)NCCc2ccccc2)c1C	-10.6	0.0	1.1	-2.4	13.1	-30.6	i	-16.9
CC(C)(C)CN1CCNC[C@H]1Cc1cccc2ccccc12	5.1	2.2	4.1	.	.	-6.5	i	1.1
Cc1ccc2nc(NC(=O)C3CCN(S(=O)(=O)c4cnc[nH]4)CC3)sc2c1	1.9	12.3	-11.2	2.0	1.5	1.5	i	-13.1
CC(=O)c1cc(CN2CCC(C(=O)Nc3cccc(-c4cscn4)c3)CC2)cs1	-10.3	-0.9	-7.9	-10.7	-18.4	17.3	i	-8.6
CC(NC(=O)c1ccc([N+](=O)[O-])cc1Cl)C1CC2CCC1C2 (configuration not stated)	0.7	2.3	-0.8	-7.2	3.5	1.2	i	0.2
Cc1ccc(CNC(=O)CCN2C(=O)[C@@H]3Cc4ccccc4CN3C2=O)cc1	5.9	0.0	0.6	-3.4	10.4	12.9	i	-4.3
O=C(CN(c1ccc(F)cc1)S(=O)(=O)c1ccccc1)NCc1ccco1	-2.0	-3.6	-1.4	11.6	-0.9	.	i	-11.3
COc1ccc(-c2nnc(-c3cc4c(ccc5ccccc54)oc3=O)o2)cc1	27.1	3.6	1.5	34.0	6.6	-19.8	i	-12.1&1.4
CCOc1ccc(NC(=S)N(CCc2c(C)[nH]c3ccccc23)Cc2ccco2)cc1	0.0	1.8	-3.7	-7.6	-2.9	-13.9	i	0.2
CSc1cccc(NC(=S)N2CCC(N(C)C3CCCCCC3)CC2)c1	.	5.0	4.1	1.2	-12.0	-2.2	i	-25.6
COc1ccccc1N1CCN(C(=O)CN(Cc2ccccc2)S(C)(=O)=O)CC1	12.8	-4.4	-8.6	-1.6	-12.6	.	i	18.7
CN(C)CCCNCC(=O)NN(c1ccccc1)c1ccccc1	-1.5	.	.	2.1	8.6	-7.6	i	.
CC(NC(=O)C(=O)N1CCOCC1)C(c1cccs1)N1CCN(c2ccc(F)cc2)CC1 (configuration not stated)	3.3	-3.5	0.4	-19.2	-7.0	-6.7	i	-33.1
Cc1ccc(C(=O)COC(=O)COc2ccc(C)c(C)c2)cc1	-3.2	-0.7	2.3	-5.2	6.2	4.4	i	-11.6
COCCN(C(=O)CNC(=O)c1ccco1)C(C(=O)NC1CCCC1)c1cccs1 (configuration not stated)	-7.1	-6.3	-0.5	-5.4	1.0	-14.1	i	-4.3
COC(=O)[C@@H](Cc1ccccc1)N(Cc1ccccc1)S(=O)(=O)N(Cc1ccccc1)[C@H](Cc1ccccc1)C(=O)OC	25.6	-4.5	-27.9	.	.	40.3	.	-2.2
CCOC(=O)N1CCN(c2c(-c3ccc(C)cc3)c(=O)c2=O)CC1	.	3.5	8.2	-1.9	8.3	-56.2	i	-17.8
(listing goes on)
SMILES	CSC inhib	MT1-MMP act inh	MT1-MMP act inh RFP	eIF4H FP inh	PABP FP inh	Env fusion inh	Rce1 inhib	Yeast UUG start	others
CCOc1ccc(N(CC(=O)N2CCCC2)S(=O)(=O)c2ccc(F)cc2)cc1	-9.0	0.1	2.1	-0.1	-10.0	-4.4	i	-6.5
O=C(/C=C/c1ccc2c(c1)OCO2)NCCS(=O)(=O)N1CCN(c2ccc(F)cc2)CC1	-2.9	1.1	-7.5	.	.	2.6	i	-2.4
Cn1c(=O)c2c(nc(OCc3ccccc3)n2C)n(C)c1=O	4.3	0.9	5.8	-2.2	0.1	18.4	i	-13.7
CC(=O)NC(C(=O)NCC(N)=O)C(C)C (configuration not stated)	-1.9	-4.0	-0.5	-1.7	-1.6	-61.5	i	-9.7
O=C(CN1C(=O)CSc2ccccc21)Nc1ccccc1C(=O)N1CCOCC1	-7.5	3.1	0.7	2.2	8.9	-20.5	.	-12.5
S=C(NCc1ccccc1)NN1CCOCC1	.	3.4	6.9	-1.9	-10.5	9.8	i	.
CN1CCc2c(sc(NC(=O)c3cc4cc([N+](=O)[O-])ccc4s3)c2C(N)=O)C1	.	.	.	26.1	-7.1	.	i	.
O=[N+]([O-])c1ccc(COn2nnc3ccccc32)cc1	1.4	-0.3	-1.4	-3.0	0.0	2.6	.	.
CCOc1ccc(CCNC(=O)C2CCCN(C(=O)N(C)C)C2)cc1OCC (configuration not stated)	-5.0	0.2	-3.3	5.0	10.6	8.0	i	-12.0
COc1ccc(S(=O)(=O)N2CN(Cc3ccco3)c3nc4ccccc4nc32)cc1	4.9	-29.8	6.0	?	?	19.8	i	-15.8
